Compound activity as filed in PubChem.
Rce1 inhib – inhibitors of yeast Ras-converting enzyme. 290,000 tested, 0.27% active. Q03530. yeast membranes, quenched prenylated peptide cleavage fluorescence. calls only;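 active means fall in fluorescence gain of 50% or more versus controls, with final raw signal at or below 3038400; inconclusive means same 50% fall but final raw signal above 3038400; inactive means fall in fluorescence gain under 50%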;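 further: plate controls were neutral control wells for no effect and wells lacking membranes for full effect; tested at 10 µM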
CSC inhib – cancer stem cell inhibition. cancer stem cell-like cells viability, luminescence. inhibition, % at 7.5 µM. 300,000 tested, 1.1% active. AID 2717;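 active means mean at 75% or more and at least half the replicates too; inconclusive means mean and replicates disagree; tested in HMLE shEcad cells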;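 further: 0% = median of negative and 100% = median of positive control wells; the first replicate is given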
PABP polyA inh – blocks human PABP binding to poly(A) RNA; P11940; 290,000 tested, 1% active; inhibition, % at 35 µM; AID 2014; fluorescence polarization;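 active means 50% or more with normal probe brightness, or confirmed in later tests; inconclusive means above 50% with abnormal brightness, or retests that disagree; inactive means below 50% or failed in later tests; about a fifth of its hits are not listed in these tables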;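 further: calls also rest on retests at 20 µM and on dose response follow-up; controls were probe without protein and protein plus probe with vehicle; some compounds called inactive have numbers as strong as hits; many hits fall short of the cut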
Target sequence (P11940 whole entry, looked up): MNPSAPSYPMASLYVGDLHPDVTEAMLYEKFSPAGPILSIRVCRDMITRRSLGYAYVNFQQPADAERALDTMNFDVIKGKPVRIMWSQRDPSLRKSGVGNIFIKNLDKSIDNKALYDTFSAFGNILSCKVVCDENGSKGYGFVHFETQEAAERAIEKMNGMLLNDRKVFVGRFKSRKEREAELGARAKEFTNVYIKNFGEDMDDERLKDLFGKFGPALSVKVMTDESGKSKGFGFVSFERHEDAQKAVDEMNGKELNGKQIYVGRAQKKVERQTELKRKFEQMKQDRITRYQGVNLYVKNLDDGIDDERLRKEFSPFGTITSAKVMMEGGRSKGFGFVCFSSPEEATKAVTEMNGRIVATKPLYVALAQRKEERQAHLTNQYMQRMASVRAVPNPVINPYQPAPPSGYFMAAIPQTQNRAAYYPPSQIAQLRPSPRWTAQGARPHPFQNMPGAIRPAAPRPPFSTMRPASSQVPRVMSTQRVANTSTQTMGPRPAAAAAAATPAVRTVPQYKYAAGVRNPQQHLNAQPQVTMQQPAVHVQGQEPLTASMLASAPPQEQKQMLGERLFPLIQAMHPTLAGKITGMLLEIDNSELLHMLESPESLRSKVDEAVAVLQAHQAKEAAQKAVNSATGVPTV
eIF4H inh – inhibitors of RNA binding by human eIF4H; Q15056; eIF4H fluorescence polarization binding assay; inhibition, % at 35 µM; 290,000 tested, 0.94% active;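 active means 50% or more with normal probe brightness, or confirmed in later tests; inconclusive means above 50% with abnormal brightness, or retests that disagree; inactive means below 50% or failed in later tests; about a fifth of its hits are not listed in these tables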;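 further: calls also rest on retests at 20 µM and on dose response follow-up; 0% = protein and probe with vehicle and 100% = probe without protein; strong numbers were not always called active; many hits fall short of the cut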
MT1-MMP act inh – MT1-MMP (human) activation inhibition | P50281 | HT1080 RFP-PRO-GFP cells, GFP/RFP ratio fluorescence, overnight; percent of plate control window, DMSO zero | GFP/RFP ratio change, % at 20 µM | 360,000 tested, 0.061% active | AID 651647;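 active means GFP/RFP ratio change of at least 30% with cell ATP level not reduced by more than half and red fluorescence within 50% of control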; further: strong numbers were not always called active
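Test system: HT1080 RFP-PRO-GFP cells; Benchmarks: DMSO and RFP-L50D-GFP cell wells; Timing: cells overnight before dosing, compound overnight, 37 °C, 5% CO2; Compound: one 20 µM compound dose with 1% DMSO; Read-out: GFP/RFP fluorescence ratio.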
Env fusion inh – HIV envelope-mediated fusion inhibition. HeLa-JRFL Env/CEM21 cell fusion, luciferase. inhibition, % at 12.3 µM. 360,000 tested, 1.1% active. AID 651610;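 active means mean replicate inhibition score of at least 50 and every replicate individually at or above 50; inconclusive means only one of the two criteria met; inactive means mean below 50 and not all replicates reaching 50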;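 further: 0% = plate neutral controls and 100% = maraviroc near 300 nM; one replicate is shown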
Yeast UUG start – yeast start codon fidelity modulation; activity score, % at 18.7 µM; S. cerevisiae UUG-firefly luciferase reporter, luminescence/redox ratio; 350,000 tested, 0.13% active;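 active means replicate mean at a twofold rise or more, about +100% in these data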;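 further: firefly luciferase made from a UUG start codon reports start codon fidelity; reporter light over untreated wells divided by growth signal over untreated wells; some hits fall short of that in this replicate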
MT1-MMP act inh RFP – recorded beside MT1-MMP act inh, whose call it bears; RFP signal change, %; measured here: RFP expression control read;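 0 = vehicle wells; hits needed this value within 50% of zero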
Starred values were filed as active, the others as inactive; i = inactive; ? = inconclusive; . = no result given. A portion of the library; the hit share may differ from the screen's.

SMILES	Rce1 inhib	CSC inhib	PABP polyA inh	eIF4H inh	MT1-MMP act inh	MT1-MMP act inh RFP	Env fusion inh	Yeast UUG start
COc1ccc(CCNS(=O)(=O)c2ccc3c(c2)NC(=O)CCS3)cc1OC	i	10	5	-7	-8	2	-3	0
COc1ccccc1OCC(=O)N1CCCC(Nc2ccc(C)c(C)c2)C1 (configuration not stated)	.	-6	0	0	0	2	-18	5
CCCCC(=O)N/N=C(/C)C1=C(C)C(C)(C)OC1=O	i	-9	?	-10	3	4	-9	.
COc1ccc(S(=O)(=O)Nc2cc3c4c(c2)CCC(=O)N4CCC3)cc1C	i	.	.	.	1	-6	9	0
CCN1C=CC2=C(C#N)C(N)C(C#N)(C#N)C(c3ccccc3C(F)(F)F)C2C1 (configuration not stated)	i	-1	?	?	-97	0	.	-9
Clc1cccc(Cl)c1C[n+]1cccc2ccccc21	i	-6	.	.	-80	-23	6	-3
CCN1C(=O)[C@H]2[C@@H](c3ccc(C)cc3)N3C(=O)N(c4cccc(Br)c4)C(=O)[C@@]3(CC(C)C)[C@H]2C1=O	i	-11	.	.	4	0	104*	-13
Cc1cccc(NC(=O)CCN2CCOCC2)c1	i	-14	9	4	-1	0	-49	-13
CCN=c1sc(C(=O)Nc2ccccc2)c(C)n1CC	i	-15	-11	-1	-1	0	8	.
O=C(CC1C(=O)NCCN1Cc1ccccc1C(F)(F)F)NC1CCC1 (configuration not stated)	i	6	6	-7	2	-1	.	-14
CC(=O)Nc1nc(CCC(C)C)cc2c1c(=O)oc1ccccc12	i	1	11	-3	0	0	.	-17
Cn1c(=O)c2c(ncn2CC(=O)OCC(=O)NC(c2ccccc2)c2ccccc2)n(C)c1=O	i	5	-2	-6	0	2	-17	.
CCOC(=O)N1CCN(C(=O)C2CCCN(S(=O)(=O)c3c(C)cc(C)cc3C)C2)CC1 (configuration not stated)	i	-15	-5	0	0	-3	-2	5
COc1c(O)cccc1[C@H](O)C1CCN(CCc2ccc(F)cc2)CC1	i	-7	.	.	-19	5	.	-12
CN(CC1CCN(CCc2cccc(C(F)(F)F)c2)CC1)C(=O)c1ccccc1	i	31	5	-9	-2	-6	14	0
CCn1cc(C(=O)N[C@@H](C)C(=O)NCCCN2CCOCC2)c(=O)c2cc3c(cc21)OCO3	i	-8	7	-1	3	4	-7	-17
C=CCNC(=O)C1CC(=O)N(c2ccc(OCC(=O)NCc3ccccc3)cc2)C1 (configuration not stated)	i	-9	11	-1	2	9	.	-8
Cc1nn(-c2ccc(N3CCOCC3)nn2)c(C)c1CCC(=O)NCc1ccccc1F	i	-10	1	0	3	2	10	-12
CCCCn1c(N)c(N(CCOC)C(=O)c2ccc(S(=O)(=O)N3CCC(C)CC3)cc2)c(=O)[nH]c1=O	i	2	.	.	-5	-1	3	-22
CN(N)C(=S)Nc1ccc(F)cc1	i	-8	0	-6	1	0	4	-21
CC1CCN(CC(O)Cn2c3ccccc3c3ccccc32)CC1 (configuration not stated)	i	1	-3	3	3	-3	-21	-5
O=C(O)C(Cc1ccccc1)N1C(=O)C2C3CCC(C3)C2C1=O (configuration not stated)	.	.	.	.	-1	4	-11	5
NC(Cc1ccccc1)c1csc(NC(=O)Nc2ccccc2Oc2ccccc2)n1 (configuration not stated)	.	.	.	.	-5	-6	60*	-27
COc1ccc(S(=O)(=O)N2CCN(c3ccccc3OC)CC2)cc1C(=O)N1CCCCC1	i	-7	1	-2	-1	-8	-12	-3
COc1ccc(N2CCN(c3ncnc4c3nnn4Cc3ccccc3Cl)CC2)cc1	i	35	-6	-8	3	-1	.	-12
COc1ccc(S(=O)(=O)Nc2c(C(=O)O)[nH]c3ccc(OC)cc23)c(OC)c1	i	8	0	0	-3	1	-51	-15
CC(C)C(=O)NC(=S)/C=C1/N(C)c2ccccc2C1(C)C	.	-2	2	13	-4	33	4	.
CCCOc1ccc(/C(O)=C2/C(=O)C(=O)N(CCCn3ccnc3)C2c2cccnc2)cc1 (configuration not stated)	i	-7	-1	-7	3	4	-11	-27
COc1ccccc1CNS(=O)(=O)c1ccc2c(c1)N(C(C)=O)CC(C)S2 (configuration not stated)	i	-13	-1	-10	2	-14	1	4
COc1cccc(-c2nnc(SCC(=O)N3CCOCC3)o2)c1	i	-4	5	10	-2	2	.	-20
CC1(C(=O)O)C=CC2(CCCCC2)N1C(=O)c1ccccc1 (configuration not stated)	i	-3	1	-1	-2	3	-26	-10
O=C(O)c1cc(-c2ccc(O)cc2)on1	i	-5	-9	-14	-2	4	11	.
O=C(NC1CCCCC1)C1CCC(=O)N(C2CC2)C1 (configuration not stated)	i	-10	-1	2	1	3	.	-3
O/N=C/c1nc2cc(Cl)ccc2o1	i	8	-12	-5	-4	0	-2	.
COc1cccc(OC)c1C(=O)N1CCOCC1	i	3	-7	-4	4	6	-34	-15
CCOc1ccc(C(=O)Nc2ccc(N3CCN(C)CC3)cc2)cc1[N+](=O)[O-]	i	9	-11	-9	-2	0	-6	.
CCCN(CC(=O)Nc1ccccc1OC)Cc1c(O)ccc2ccccc12	i	-12	4	-10	3	2	5	-3
CCNC(=O)/C(C#N)=C/c1c(N2CCN(c3ccccc3)CC2)nc2ccccn2c1=O	i	-7	2	13	4	3	8	7
COc1cc(Nc2cc(C)nc3ncnn23)cc(OC)c1	i	0	10	-10	3	7	-76	-21
Cc1ccc(NC(=O)c2cc(N3C(=O)CCC3=O)ccc2N2CCCCC2)cc1	i	-9	4	-10	4	-6	9	.
CCCCCCCOC(=O)c1nc(Cl)c(Cl)c(N)c1Cl	i	13	-7	4	2	5	.	-9
O=C(Nc1ccc(O)cc1)/C(=C/c1ccco1)NC(=O)c1ccccc1	i	-11	-12	-6	3	1	6	.
Cc1cc(C)n(-c2ccc(Cl)c(C(=O)O)c2)n1	i	-2	15	3	0	6	17	.
CC(=O)CC(c1ccccc1)S(=O)(=O)c1ccc([N+](=O)[O-])cc1 (configuration not stated)	i	-7	5	2	-6	0	2	-8
O=C(NC(=O)c1cnccc1C(F)(F)F)Nc1ccccc1	i	-3	0	7	-2	3	-1	-9
CCOC(=O)C1CCN(C(=O)Nc2cc(Cl)cc(Cl)c2)CC1	i	-3	2	-11	6	-2	6	-4
CC1CC(C)CN(c2nc3c(c(=O)[nH]c(=O)n3C)n2CCCSc2nc3ccccc3s2)C1 (configuration not stated)	.	.	.	.	-8	-3	-25	-13
CCOc1ccc(CN2CCN(Cc3cccn3-c3ncccn3)CC2CCO)cc1 (configuration not stated)	i	10	15	2	0	1	5	-15
O=C(C1CCC(C(=O)N2CCCCC2)CC1)N1CCCCC1 (configuration not stated)	i	-14	0	-3	-1	4	.	8
N#Cc1nc(-c2ccc(F)cc2)oc1NCc1cccc2c1OCO2	i	-11	21	2	-3	0	27	-2
O=C(Nc1ccccc1)c1cccc(N2CCCC2=O)c1	i	-8	5	27	-4	-8	.	-24
CCCCc1ccc(-c2ccc(Br)cc2O)nc1	i	14	2	2	1	-2	-144	-16
COCCNC(=O)CSC1=N/C(=C/c2ccc(Cl)c(Cl)c2)C(=O)N1c1ccccc1F	i	-2	1	-8	-21	-20	19	.
Cc1ccc(S(=O)(=O)CCC(=O)NCc2ccc(Cl)cc2)cc1	i	-13	4	-6	1	1	-7	.
CCCC(=O)n1nc(-c2cccnc2)nc1NCc1cccs1	i	.	-12	-12	2	0	13	.
Cc1c(NS(=O)(=O)c2ccc(N)cc2)c(=O)n(-c2ccccc2)n1C	i	-20	-4	-10	9	3	-2	7
O=C(O)c1cn(-c2ccc(F)cc2)c2cc(Cl)c(F)cc2c1=O	i	-3	0	-1	3	-9	3	-27
COc1ccc(CCCC(=O)Nc2ccccc2F)cc1	i	-3	2	1	2	4	4	.
O=C(Cn1nnc2ccccc21)c1cccc([N+](=O)[O-])c1	i	0	6	-1	-6	6	0	9
Cc1cc(C)c(C(=O)Nc2ccc(Br)c(C(F)(F)F)c2)c(C)c1	i	3	0	2	-2	-9	10	.

Whole records as entered above:
CCCC(=O)n1nc(-c2cccnc2)nc1NCc1cccs1 across the screens: Rce1 inhib = i; CSC inhib = .; PABP polyA inh = -12; eIF4H inh = -12; MT1-MMP act inh = 2; MT1-MMP act inh RFP = 0; Env fusion inh = 13; Yeast UUG start = .
CCCCc1ccc(-c2ccc(Br)cc2O)nc1 across the screens: Rce1 inhib = i; CSC inhib = 14; PABP polyA inh = 2; eIF4H inh = 2; MT1-MMP act inh = 1; MT1-MMP act inh RFP = -2; Env fusion inh = -144; Yeast UUG start = -16
Cc1cc(C)c(C(=O)Nc2ccc(Br)c(C(F)(F)F)c2)c(C)c1 across the screens: Rce1 inhib = i; CSC inhib = 3; PABP polyA inh = 0; eIF4H inh = 2; MT1-MMP act inh = -2; MT1-MMP act inh RFP = -9; Env fusion inh = 10; Yeast UUG start = .

Additional structures follow.
SMILES	Rce1 inhib	CSC inhib	PABP polyA inh	eIF4H inh	MT1-MMP act inh	MT1-MMP act inh RFP	Env fusion inh	Yeast UUG start
COc1nc(-c2ccccc2)c2cc(C)ccc2n1	i	-15	-3	-13	1	-6	10	-1
COc1ccccc1C(=O)OC1CCCN(C)C1 (configuration not stated)	i	-8	9	-8	-3	0	3	-17
Cc1ccc(C(=O)Nc2c(-c3ccc(Cl)cc3)[nH][nH]c2=O)cc1	.	.	.	.	-1	-2	-4	-14
N#CC(C(=O)OC1CCCCC1)c1nc2ccccc2nc1N1CCOCC1 (configuration not stated)	i	-11	-11	-2	-5	-2	-24	28
O=C(c1ccco1)N1CCN(C(=O)C2CC(c3ccc(Cl)cc3)=NO2)CC1 (configuration not stated)	i	12	9	-1	-6	0	.	0
COc1ccc2c(c1)[C@H]1[C@H](CO2)[C@H](c2ccccc2)[C@]2(C)C(=O)Nc3ccc(C)cc3C(=O)N12	.	.	.	.	-15	-9	-15	-27
c1ccc(Cn2c(Nn3cnnc3)nc3ccccc32)cc1	i	0	4	-2	-1	-3	.	-29
Cc1cc(OCC(=O)NNC(=S)NCC2CCCO2)cc(C)c1Cl (configuration not stated)	i	-23	-8	2	2	-6	-7	-26
Cc1ccccc1NC(=O)c1cccc(C(=O)Nc2ccccc2C)n1	i	-13	13	-13	1	0	-10	-8
CCOC(=O)c1c(C)c2c(n1C)CCC/C2=N\O	.	-13	0	1	-4	9	.	-18
Cc1cccnc1NC1CCCCC1	i	-13	9	0	1	2	13	.
Cn1c(=O)n(C)c2cc(S(=O)(=O)N3CCOCC3)ccc21	i	-3	0	8	4	3	-7	.
Cc1ccc(C)c(/C=C2\CCn3c2nc2cc(C(=O)O)ccc2c3=O)c1	i	-8	10	-7	4	3	-8	-11
CCN1CCCC1CN(Cc1cc2cc(C)ccc2[nH]c1=O)C(=O)Nc1ccccc1OC (configuration not stated)	i	0	10	6	6	11	.	.
NC(=O)c1ccccc1NS(=O)(=O)c1ccc(F)cc1	i	-11	-7	-8	11	9	-3	.
COc1ccc(-c2noc(CN(C(=O)c3ccc(OC(C)=O)cc3)C(C)C)n2)cc1OC	i	20	-9	3	2	-1	.	7
Nc1nc(Nc2ccccc2)n[nH]1	i	-1	4	-3	1	2	13	-29
CCOc1ccccc1CN1CCNC(=O)C1CC(=O)N(C)CCc1ccccn1 (configuration not stated)	i	-7	0	-8	-4	1	-3	-9
Cc1cccc(NC(=O)C2CCN(S(=O)(=O)c3cccc4cccnc34)CC2)c1	i	-17	3	5	1	-2	18	-3
C=CCN(CC=C)CC(O)CN(c1cc([N+](=O)[O-])ccc1OC)S(=O)(=O)c1ccccc1 (configuration not stated)	i	-4	-4	-2	4	4	3	10
